Screening results from PubChem BioAssay.
Mtb growth: M. tuberculosis H37Rv growth inhibitors, H37Rv strain (AID 1626). M. tuberculosis H37Rv growth inhibition; higher % means a stronger effect. one-dose inhibition, % at 10 µM; IC50 in µM for titrated hits. 220,000 compounds, 0.95% hits;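 active means confirmed in a dose series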;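 further: bacteria incubated seven days before Alamar blue readout; 0% = bacteria only wells and 100% = bacteria with antibiotic wells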
Mtb betalactam: beta-lactam sensitization of Mtb H37Rv. 330,000 compounds, 0.27% hits. inhibition, % at 25 µM. M. tuberculosis H37Rv growth with meropenem, percent inhibition; hits of this screen are not shown here;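 active means about 74% or more and at least 40 points above the plate without the antibiotic, then above 30% in a dose series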;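 further: growth measured after seven days incubation then overnight dye step; 0% = bacteria only wells and 100% = bacteria with antibiotic; twin plates without the antibiotic show which effects depend on it; some results filed as inactive read as strong as hits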
RecA splice inh: Mtb RecA intein splicing inhibition; inhibition, %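 (about 9 µM by stock and volumes)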; cell-free RecA intein splicing, fluorescence; AID 2221; 290,000 compounds, 0.75% hits; in the data active means inhibition above about 30%;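 further: 0% = vehicle wells and 100% = reference inhibitor control wells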
Target sequence (P9WHJ3 whole entry, looked up, canonical isoform): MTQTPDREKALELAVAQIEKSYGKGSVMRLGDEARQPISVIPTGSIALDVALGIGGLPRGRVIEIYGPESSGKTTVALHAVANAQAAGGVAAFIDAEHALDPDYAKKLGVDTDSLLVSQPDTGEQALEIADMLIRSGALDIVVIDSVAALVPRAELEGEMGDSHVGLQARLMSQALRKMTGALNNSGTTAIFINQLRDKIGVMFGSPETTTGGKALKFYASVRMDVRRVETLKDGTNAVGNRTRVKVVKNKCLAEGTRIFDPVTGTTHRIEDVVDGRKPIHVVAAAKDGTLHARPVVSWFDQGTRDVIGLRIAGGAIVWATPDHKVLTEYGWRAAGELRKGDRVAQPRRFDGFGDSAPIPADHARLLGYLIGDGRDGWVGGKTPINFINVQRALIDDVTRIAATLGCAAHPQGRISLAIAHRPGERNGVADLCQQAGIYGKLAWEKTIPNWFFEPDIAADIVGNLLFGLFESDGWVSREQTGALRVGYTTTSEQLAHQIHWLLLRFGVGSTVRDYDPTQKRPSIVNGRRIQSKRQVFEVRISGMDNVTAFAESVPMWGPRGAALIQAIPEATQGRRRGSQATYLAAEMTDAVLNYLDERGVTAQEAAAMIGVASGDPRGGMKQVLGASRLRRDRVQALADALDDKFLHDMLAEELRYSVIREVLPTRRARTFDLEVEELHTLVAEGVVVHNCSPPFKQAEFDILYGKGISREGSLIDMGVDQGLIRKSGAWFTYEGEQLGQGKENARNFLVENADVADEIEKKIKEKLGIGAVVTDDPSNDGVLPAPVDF
YopH PTP inh: YopH (Yersinia) phosphatase inhibition; AID 898; inhibition, %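 (about 10 µM by stock and volumes)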; 140,000 compounds, 0.16% hits; fluorescence Ex485/Em525;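 active means inhibition of 50% or more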;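 further: controls were vehicle for no effect and minimum signal wells for full effect; inactives centre near -20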
Arbovirus inh: antivirals against arbovirus infection. arbovirus infection cell-based antiviral screen. inhibition, % at 10 µM. 200,000 compounds, 0.37% hits;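 active means inhibition from about 30%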;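 further: bluetongue infection of BSR cells; cell survival read as ATP light after 72 h; 0% = infected wells without compound and 100% = uninfected wells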
Arbovirus inh repeat: further read-out of Arbovirus inh, marked with its call; inhibition, %; measured here: 10K subset replicate screen; many hits read low in the repeat;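 first of two repeat runs on a subset; 0% = infected and 100% = uninfected wells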
* = called active by the depositor; i = inactive; / = not tested or not shown.

SMILES | Mtb growth | Mtb betalactam | RecA splice inh | YopH PTP inh | Arbovirus inh | others
CCOP(=O)(OCC)/C(=N/OC(=O)c1cccc([N+](=O)[O-])c1)C(N)=O | -5.4% | -3.2 | -3.2 | / | /
COC(c1ccc(Cl)cc1)(c1ccc(Cl)cc1)C(Oc1nccc(C)n1)C(=O)O (stereo unspecified) | / | -1.2 | 0.6 | / | /
COc1ccc(N2CCN(C(CNS(=O)(=O)c3ccc4c(c3)OCCO4)c3ccco3)CC2)cc1 (stereo unspecified) | 6.7% | 3.2 | 9.6 | -10.2 | 21.9
CN(C)S(=O)(=O)c1ccc(C(=O)NCC(C)(C)CN=C2NS(=O)(=O)c3ccccc32)cc1 | / | 0.7 | -2.2 | / | /
CCOC(=O)c1ccccc1NC(=O)CSC(C)C(=O)Nc1cc(C)on1 (stereo unspecified) | / | -7.0 | 1.3 | / | /
c1ccc(CSc2ncnc3c2oc2ccccc23)cc1 | -9.2% | 2.0 | / | -16.2 | /
Cc1ccc(NC(=S)Nc2cccc3ccccc23)cc1F | / | 53.2 | 5.5 | / | /
Cc1c(C(=O)OCC(=O)Nc2ccccc2OC(F)F)cccc1[N+](=O)[O-] | -4.5% | 5.6 | -1.3 | -0.7 | 2.9
COc1cccc(NS(=O)(=O)NC(=O)c2cn(C)c3ccccc23)c1 | / | 8.1 | -1.7 | / | /
O=C(O)c1cnc2ccccc2n1 | -2.2% | 5.0 | 0.3 | 0.2 | 4.4
CS(=O)(=O)N(CC(=O)NCc1ccco1)c1ccc(OCc2ccccc2)cc1 | 9.0% | -4.3 | -5.2 | / | 3.2
COc1cccc(-c2nc(-c3ccc4c(c3)NC(=O)CO4)cs2)c1 | 22.4% | 9.6 | 6.0 | / | 0.5
COc1ccccc1CNC(=O)CS(=O)Cc1nc(-c2ccccc2C)oc1C (stereo unspecified) | 6.7% | -0.3 | 7.4 | -2.2 | -0.9 | Arbovirus inh repeat=-3.3
Cc1ccc2nc(C)c(C(=O)N/N=C/c3ccc(N4CCOCC4)cc3)cc2c1 | -0.3% | -3.0 | -13.2 | -18.1 | -16.2
COc1ccc(/C=C/C(=O)NC(C)CCc2ccccc2)cc1OC (stereo unspecified) | -2.1% | -4.6 | 0.7 | / | -11.9
COc1ccc(CNC(=O)C2CCN(C(=O)Cc3ccccc3)CC2)cc1 | / | -4.6 | 0.6 | / | /
CC(NC(=O)c1ccc2c(c1)C(=O)N(Cc1cccnc1)C2=O)c1ccccc1 (stereo unspecified) | / | -3.5 | -6.1 | / | /
COc1cccc(-n2nc(C(=O)O)c3ccccc3c2=O)c1 | -13.2% | 5.8 | -0.2 | -48.3 | 7.4
CC(=O)Nc1cccc(C(=O)OCC(=O)NCc2ccc(F)cc2)c1 | 4.4% | -0.1 | -2.1 | / | 1.3
CCCCOc1ccc(C(=O)NCC(=O)OCC(=O)N2CCN(S(=O)(=O)c3ccc(C)cc3C)CC2)cc1 | -0.8% | 0.8 | 0.9 | -28.2 | 1.1
COc1ccc(/C=C/C(=O)c2ccc(O)cc2)cc1CN1CCOCC1 | 2.3% | -1.2 | 0.4 | -6.8 | -13.5
Cn1nccc1NS(=O)(=O)c1ccc(F)cc1 | / | -1.1 | -0.6 | / | /
Cn1c(/N=C/c2ccccc2[N+](=O)[O-])nc2ccccc21 | / | 1.7 | 0.7 | / | /
CC(C)C(C(=O)NCC1CCCO1)N(Cc1ccco1)C(=O)CNS(=O)(=O)c1ccccc1 (stereo unspecified) | -4.4% | -1.5 | -1.0 | -38.0 | 2.4
Cc1ccc(C)c(NC(=O)C2CCCN(S(=O)(=O)c3ccc4[nH]c(=O)ccc4c3)C2)c1 (stereo unspecified) | / | 1.3 | -0.5 | / | /

(further entries)
SMILES | Mtb growth | Mtb betalactam | RecA splice inh | YopH PTP inh | Arbovirus inh | others
Cc1ccnc(N/C=C(\C#N)c2nc(-c3cccc(Br)c3)cs2)c1 | 3.6% | 7.8 | -21.5 | -26.5 | -9.5
CC1CN(C(=O)c2cccs2)CCN1C(=O)c1cccs1 (stereo unspecified) | -1.7% | -9.8 | -0.1 | -29.8 | 0.5
O=C(/C=C/c1ccc(N2CCC(c3ccccc3)=N2)cc1)c1ccccc1 | 6.6% | -2.7 | 20.6 | / | -13.0
CC(C)N(C(=O)COC(=O)[C@H](C)NC(N)=O)c1ccccc1 | 2.2% | -1.2 | 0.1 | / | -2.0
O=C(NC(Cc1ccccc1)C(=O)N1CCCC1C(=O)O)c1ccccc1 (stereo unspecified) | -3.2% | -7.7 | -0.5 | -49.4 | 8.6
CCN(CC)CCNC(=O)Cn1cnc2sc(C)c(S(=O)(=O)N3CC(C)CC(C)C3)c2c1=O (stereo unspecified) | / | -0.3 | -0.3 | / | /
c1ccc2c(OCCCN3CCCCCC3)cccc2c1 | / | -1.5 | 0.5 | / | /
Cc1ccc(C)n1-c1cccc(C(=O)O)c1 | -2.7% | 0.5 | -1.6 | / | 1.4
Cn1cc(CN2CCN(c3cnccn3)CC2)c(-c2cccc(Cl)c2)n1 | -0.3% | -3.4 | / | / | 3.6
Cn1c(=O)n(CCc2ccccc2)c(=O)c2c1nc1n2CCCN1c1ccccc1 | -0.3% | 2.9 | -0.5 | -6.7 | 2.6
C=CCc1cc(Cl)ccc1OCCCNC(C)CC (stereo unspecified) | -4.7% | / | -1.5 | -20.6 | -26.4
Cc1ccc(S(=O)(=O)/C(C#N)=C/c2c(N3CCC(C(N)=O)CC3)nc3c(C)cccn3c2=O)cc1 | 0.3% | 8.2 | 2.8 | -1.1 | 3.3
CCS(=O)(=O)N1Cc2ccccc2CC1C(=O)NCCc1c[nH]c2ccccc12 (stereo unspecified) | / | -2.3 | 5.9 | / | /
Cc1cc(C)cc(N=C2SC(CC(=O)Nc3ccccc3)C(=O)N2CCN2CCOCC2)c1 (stereo unspecified) | 8.3% | 5.6 | 9.9 | / | -23.8
O=C(Cn1c(NCCCO)nc2ccccc21)c1ccc(Cl)cc1 | / | 6.3 | -1.1 | / | /
COc1cc([C@@H]2c3cc4c(cc3[C@H](O)[C@H]3COC(=O)[C@H]23)OCO4)cc(OC)c1OC | -4.1% | -5.3 | -4.3 | -45.4 | -21.9
CC(=O)NCCNc1nc2c(-c3ccccc3)nnn2c2ccccc12 | / | 3.2 | -58.2 | / | /
COc1ccc(N2CCN(CCC(O)c3ccc4ccccc4c3)CC2)cc1 (stereo unspecified) | / | -2.9 | -3.5 | / | /
O=C(Nc1nnc(-c2ccc(F)cc2)s1)Nc1ccccc1F | -2.1% | 3.1 | 0.0 | / | /
CCCCn1c(-c2cccc(F)c2)nc2c1c(=O)[nH]c(=O)n2CC(C)C | / | 9.2 | 1.6 | / | /
Cc1oc(-c2ccccc2)cc1C(=O)NC1CCN(Cc2ccccc2)CC1 | -6.7% | -6.4 | 0.1 | / | /
COc1ccccc1NS(=O)(=O)c1cc2c3c(c1)CC(=O)N3CCC2 | / | 3.8 | 1.4 | / | /
Cc1ccc(S(=O)(=O)NCc2ccc(C(=O)NC3CC3)cc2)cc1 | -4.2% | 8.6 | 3.3 | -23.5 | 5.1
O=C(Nc1nc2cc3c(cc2s1)OCCO3)c1ccncc1 | -3.6% | -4.7 | -1.7 | / | -2.6
N#C/C(=C\c1c(N2CCOCC2)nc2ccccn2c1=O)C(=O)NC1CCS(=O)(=O)C1 (stereo unspecified) | -9.1% | -3.4 | i | / | /

Looked up one by one from the entries so far (2):
SMILES | Mtb growth | Mtb betalactam | RecA splice inh | YopH PTP inh | Arbovirus inh | others
Cn1c(=O)n(CCc2ccccc2)c(=O)c2c1nc1n2CCCN1c1ccccc1 | -0.3% | 2.9 | -0.5 | -6.7 | 2.6
CC(C)N(C(=O)COC(=O)[C@H](C)NC(N)=O)c1ccccc1 | 2.2% | -1.2 | 0.1 | / | -2.0

(cont.)
SMILES | Mtb growth | Mtb betalactam | RecA splice inh | YopH PTP inh | Arbovirus inh | others
CC(C)CCNC(=O)C(=O)NCCC1=CCCCC1 | 12.5% | 0.0 | -1.0 | -34.9 | -9.5
CCN1C(=C2C(=O)c3ccccc3C2=O)C=Cc2ccccc21 | -2.8% | 0.8 | -1.6 | -3.2 | 3.6 | Arbovirus inh repeat=5.4
O=C(c1cc(-c2ccccn2)nc2ccc(Br)cc12)N1CCN(S(=O)(=O)c2ccccc2)CC1 | 6.5% | -0.2 | 0.1 | / | -5.8
COc1ccc(NC(=S)NC2CCCCC2)c(OC)c1 | 63.4% | 10.6 | 0.6 | / | 13.0
Cc1c(C(=O)O)oc2ccc(S(=O)(=O)N3CCCC3)cc12 | / | -1.0 | -2.3 | / | /
Cc1ccccc1NC(=O)N1C2CCCC1CC(NC(=O)C(C)(C)C)C2 (stereo unspecified) | -7.8% | / | / | -38.4 | 9.9
Cc1n[nH]c(C)c1S(=O)(=O)N1CCC(C(=O)O)CC1 | 2.8% | -0.7 | -1.6 | -39.6 | 3.0
CCOC(=O)c1c(C)[nH]c(C(=O)OC)c1CCC(=O)OC | -4.7% | -10.5 | 0.6 | -17.1 | 8.7 | Arbovirus inh repeat=-3.3
Cc1cc(C(F)F)n2nc(C(=O)Nc3cccnc3Cl)nc2n1 | -6.8% | 0.6 | -2.0 | -17.4 | 5.8
Cc1ccc(-n2cc(CN3CCC(O)(c4ccccn4)CC3)c(-c3ccc(F)cc3)n2)cc1 | 7.3% | 98.2 | 6.5 | / | -43.1
CC(C)Cc1cc(C(=O)NCc2cccs2)no1 | 11.7% | 4.0 | 2.3 | -25.3 | -5.0
Cc1ccc(C(=O)c2coc3cc([N+](=O)[O-])c(O)c([N+](=O)[O-])c23)cc1 | -4.2% | 5.6 | 34.5* | -18.7 | 36.5*
COc1ccccc1C(=O)N(Cc1ccc(C)o1)C1CCS(=O)(=O)C1 (stereo unspecified) | / | -3.9 | 0.0 | / | /
O=c1c2cc([N+](=O)[O-])ccc2nc(CN2CCOCC2)n1-c1ccccc1F | -6.1% | / | / | -43.9 | 5.0
COc1ccc(NC(=O)CCn2cccc2)cc1 | 1.5% | -14.1 | 0.1 | -27.9 | 6.3
CCN(CC)c1ccc(/C=N/n2nnnc2N)c(O)c1 | -4.8% | -3.4 | -38.2 | 7.1 | -17.8
O=[N+]([O-])c1ccc(N2CCOCC2)cc1NC(c1ccccc1)c1ccccc1 | 6.6% | -3.0 | 1.0 | -0.3 | -17.4
COc1ccc(OC)c(NC(=O)Cc2c(C(=O)O)n(C)c3ccccc23)c1 | / | 1.1 | 0.2 | / | /
CO/N=C/NC(=O)Cc1cn(-c2ncc(C(F)(F)F)cc2Cl)c2ccccc12 | 9.4% | -3.0 | 14.6 | -9.1 | 6.6
CCNc1nc(NC(C)(C)C)nc(N2CCCCC2)n1 | 16µM* | 98.2 | 2.6 | / | -7.0
Cc1noc(/C=C/c2cccnc2)c1[N+](=O)[O-] | / | 90.4 | 1.4 | / | /
COc1ccc(/C=N/NC(=O)c2cc(Br)ccc2O)cc1Cn1cc(Cl)cn1 | -4.7% | -1.2 | 0.5 | -9.9 | 0.4
CC(C)Cn1c(=O)c2c(nc3n2CCS3)n(C)c1=O | -4.0% | -12.2 | 1.1 | / | /
COc1cccc(C(=O)Nc2cccc3ccccc23)c1OC | / | 4.9 | 6.0 | / | /
CCOc1cc(Br)c(C(=O)O)cc1OCC | 2.5% | -11.4 | 0.7 | -0.1 | 3.5
Cc1ccc(NC(=O)CSc2nccn2C)cc1S(=O)(=O)N1CCOCC1 | -1.5% | 0.0 | -3.6 | -37.6 | 8.2
COc1cccc(C(=O)Nc2cccc(C(C)=O)c2)c1 | 6.0% | 2.0 | 0.1 | -27.1 | -1.5
Clc1nc(Cl)nc(NCCC2=CCCCC2)n1 | -8.8% | 0.9 | 1.5 | / | 0.8

Structural class, those above containing a COOH group.
SMILES | Mtb growth | Mtb betalactam | RecA splice inh | YopH PTP inh | Arbovirus inh | others
COC(c1ccc(Cl)cc1)(c1ccc(Cl)cc1)C(Oc1nccc(C)n1)C(=O)O (stereo unspecified) | / | -1.2 | 0.6 | / | /
O=C(O)c1cnc2ccccc2n1 | -2.2% | 5.0 | 0.3 | 0.2 | 4.4
COc1cccc(-n2nc(C(=O)O)c3ccccc3c2=O)c1 | -13.2% | 5.8 | -0.2 | -48.3 | 7.4
O=C(NC(Cc1ccccc1)C(=O)N1CCCC1C(=O)O)c1ccccc1 (stereo unspecified) | -3.2% | -7.7 | -0.5 | -49.4 | 8.6
Cc1ccc(C)n1-c1cccc(C(=O)O)c1 | -2.7% | 0.5 | -1.6 | / | 1.4
Cc1c(C(=O)O)oc2ccc(S(=O)(=O)N3CCCC3)cc12 | / | -1.0 | -2.3 | / | /
Cc1n[nH]c(C)c1S(=O)(=O)N1CCC(C(=O)O)CC1 | 2.8% | -0.7 | -1.6 | -39.6 | 3.0
COc1ccc(OC)c(NC(=O)Cc2c(C(=O)O)n(C)c3ccccc23)c1 | / | 1.1 | 0.2 | / | /
CCOc1cc(Br)c(C(=O)O)cc1OCC | 2.5% | -11.4 | 0.7 | -0.1 | 3.5

These rows are one share of the data; the hit share may differ from the screen's.
